Mtb H37Rv: M. tuberculosis H37Rv growth inhibitors, H37Rv strain (AID 1626) | inhibition, % at 10 µM; hits with a dose series show IC50 in µM | M. tuberculosis H37Rv growth inhibition; higher % means a stronger effect | 220,000 compounds, 0.95% hits;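 active means confirmed in a dose series; inconclusive means inhibition above 80% but not taken into the dose series; inactive means below 80% or under 30% at every dose of the series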;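 further: bacteria incubated seven days before Alamar blue readout; 0% = bacteria only wells and 100% = bacteria with antibiotic wells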
RecA splice inh: Mtb RecA intein splicing inhibitors, primary screen, biochemical, fluorescence, HTS; Protein RecA (Mycobacterium tuberculosis (strain ATCC 25618 / H37Rv)), P9WHJ3; 290,000 compounds, 0.75% hits; cell-free RecA intein splicing; inhibition, %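 (about 9 µM by stock and volumes)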; in the data active means inhibition above about 30%; inconclusive means no clear call, values can overlap the other calls;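 further: 0% = vehicle wells and 100% = reference inhibitor control wells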
Target sequence (P9WHJ3 whole entry, looked up, canonical isoform): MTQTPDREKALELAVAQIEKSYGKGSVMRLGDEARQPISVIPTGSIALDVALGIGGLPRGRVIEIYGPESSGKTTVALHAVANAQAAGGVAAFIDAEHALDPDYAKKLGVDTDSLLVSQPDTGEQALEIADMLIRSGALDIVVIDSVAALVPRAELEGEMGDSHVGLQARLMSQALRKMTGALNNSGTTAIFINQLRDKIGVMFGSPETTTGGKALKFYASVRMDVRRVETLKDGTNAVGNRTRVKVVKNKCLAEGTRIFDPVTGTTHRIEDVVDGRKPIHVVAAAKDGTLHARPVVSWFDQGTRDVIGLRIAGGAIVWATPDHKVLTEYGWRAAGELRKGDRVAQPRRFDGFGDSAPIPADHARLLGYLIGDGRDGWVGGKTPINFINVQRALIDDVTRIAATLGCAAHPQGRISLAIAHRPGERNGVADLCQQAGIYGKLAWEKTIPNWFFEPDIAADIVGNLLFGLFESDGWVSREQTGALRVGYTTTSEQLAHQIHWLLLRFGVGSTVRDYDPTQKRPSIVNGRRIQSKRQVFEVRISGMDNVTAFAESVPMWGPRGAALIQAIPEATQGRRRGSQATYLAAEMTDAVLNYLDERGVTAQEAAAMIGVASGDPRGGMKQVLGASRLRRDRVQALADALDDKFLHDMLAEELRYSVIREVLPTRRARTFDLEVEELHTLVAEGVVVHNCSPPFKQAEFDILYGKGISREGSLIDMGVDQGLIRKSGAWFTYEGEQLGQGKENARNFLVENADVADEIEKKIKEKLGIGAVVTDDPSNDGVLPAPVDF
Arbovirus anti: antivirals against arbovirus infection, primary screen, cell-based, full library, 10K replicate subset; arbovirus infection cell-based antiviral screen; AID 1251, 2008; 200,000 compounds, 0.37% hits; inhibition, % at 10 µM;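 active means inhibition from about 30%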;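 further: bluetongue infection of BSR cells; cell survival read as ATP light after 72 h; 0% = infected wells without compound and 100% = uninfected wells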
YopH PTP inh: YopH tyrosine phosphatase inhibitors, primary screen, biochemical, fluorescence Ex485/Em525. 140,000 compounds, 0.16% hits. inhibition, %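 (about 10 µM by stock and volumes)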. YopH tyrosine phosphatase [Yersinia enterocolitica];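 active means inhibition of 50% or more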;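 further: controls were vehicle for no effect and minimum signal wells for full effect; inactives centre near -20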
Mtb betalactam: beta-lactam sensitization of Mtb H37Rv, H37Rv; M. tuberculosis H37Rv growth with meropenem, percent inhibition; hits of this screen are not shown here; inhibition, % at 25 µM; 330,000 compounds, 0.27% hits; AID 434955, 2010;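 active means about 74% or more and at least 40 points above the plate without the antibiotic, then above 30% in a dose series; inconclusive means first-round hits that could not be retested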;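 further: growth measured after seven days incubation then overnight dye step; 0% = bacteria only wells and 100% = bacteria with antibiotic; twin plates without the antibiotic show which effects depend on it; some results filed as inactive read as strong as hits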
Arbovirus anti repeat: further read-out of Arbovirus anti, marked with its call; inhibition, %; measured here: 10K subset replicate screen; many hits read low in the repeat;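 first of two repeat runs on a subset; 0% = infected and 100% = uninfected wells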
Starred values were filed as active, the others as inactive; ? = inconclusive; · = not tested or not shown.

SMILES	Mtb H37Rv	RecA splice inh	Arbovirus anti	YopH PTP inh	Mtb betalactam	others
O=C(NCc1ccccc1)C(C(=O)c1ccc(F)cc1)n1ccccc1=O (centres undefined)	-7%	2.5	5	-18	-4
CC1=C(C)CC(C(=O)NC(C)CCc2ccccc2)C(C(=O)O)C1 (centres undefined)	5%	-0.7	2	·	-5
O=Cc1cn(CCC(=O)O)nc1-c1cc2ccccc2o1	-2%	1.3	2	-28	-2
C[C@H]1CCCC(=O)CCCCCc2cc(O)cc(O)c2C(=O)O1	7%	0.0	11	-11	11
COc1ccccc1NS(=O)(=O)c1cc(C(=O)N2CC(C)CC(C)C2)ccc1C (centres undefined)	-6%	2.6	-5	-7	-7
Cc1cc(C(=O)COC(=O)C2CCN(C(=O)c3ccc(Cl)cc3)CC2)c(C)n1CC1CCCO1 (centres undefined)	0%	3.1	-4	·	10
CCOC(=O)C1(CCOc2ccccc2)CCN(Cc2ccc(F)c(OC)c2)CC1	·	1.0	·	·	-3
O=C(/C=C/c1ccc2c(c1)OCO2)NCCCN1CCOCC1	-11%	-0.9	2	-28	-5
COc1ccc(OC)c(Cc2nnc(CCC(=O)NCc3ccc(C)s3)o2)c1	-6%	0.2	0	·	-8
CCCCc1ccc(NC2=NCC(=O)N2CCc2ccccc2)cc1	-3%	3.1	16	·	-2
NC(=O)C1CCN(CC(O)COCc2ccccc2Cl)CC1 (centres undefined)	·	-0.5	·	·	3
CCCCn1c(N)c(N(CCOC)C(=O)c2cc(S(=O)(=O)N3CCCCC3)ccc2Cl)c(=O)[nH]c1=O	·	4.3	·	·	-12
O=C(Oc1ccc(Br)cc1C(=O)/C=C/c1ccccc1F)c1ccco1	·	12	·	-29	3
Cc1ccccc1NC(=O)OCc1cn(-c2ccc(Cl)cc2)nn1	-5%	1.3	0	-35	9
N#Cc1cccc(Nc2c3c(nc4ccccc24)CCCC3)c1	36%	-2.6	0	·	59
Cc1nc2scc(-c3ccccc3)c2c(=O)n1/N=C/c1ccco1	-4%	1.5	-8	-23	-2
CCOc1cc(CNc2ccc(S(N)(=O)=O)cc2)ccc1OCC(=O)NC(C)(C)C	0%	-5.1	1	·	0
COc1ccccc1CNC(=O)CSc1ccc(Br)cc1	4%	1.0	2	-3	8
O=C(CN1CCc2cc3c(cc2C1)OCCCO3)Nc1cccc(Br)c1	·	6.0	·	·	10
Cc1ccc(NC(=O)CSCC(=O)N(C)CC(=O)Nc2cccc(F)c2)cc1	·	0.3	·	·	2
CC(CC(=O)Nc1ncc([N+](=O)[O-])s1)c1ccccc1 (centres undefined)	5%	25	3	·	6
CCOc1ccc(C2C(C#N)=C(N)Oc3c2c(=O)oc2ccccc32)cc1 (centres undefined)	-7%	-0.4	7	-40	1
Cc1ccc(S(=O)(=O)N(C)Cc2ccc(-c3nnc4n3CCC4)cc2)cc1	10%	0.7	0	-41	0
COc1ccc(OC)c2[nH]c(C(=O)N3CCC(C(=O)O)CC3)cc12	·	2.3	·	·	1
COC(=O)c1[nH]c2ccccc2c1NC(=O)CN1CCN(Cc2ccc3c(c2)OCO3)CC1	-10%	0.9	-21	-51	4
(listing goes on)
SMILES	Mtb H37Rv	RecA splice inh	Arbovirus anti	YopH PTP inh	Mtb betalactam	others
COc1ccc2c(c1O)-c1cccc3c1[C@@H](C2)N(C)CC3	-2%	-6.3	·	·	5
Cc1ccsc1C=C1C(=O)c2ccccc2C1=O	-12%	-0.2	-4	-45	0
O=[N+]([O-])c1ccc(N2CCOCC2)cc1O	-6%	3.6	·	·	-2
Cc1ccc(C(c2nnnn2C2CCCCC2)N2CCN3CCCC3C2)cc1 (centres undefined)	-7%	1.3	-12	11	-3
Cc1ccc(Oc2nnc(-c3ccc(C)cc3)c3ccccc23)cc1	5%	-1.7	0	-21	-6
Cc1ccn2cc(CCNS(=O)(=O)c3ccc4c(c3)OCCO4)nc2c1	5%	0.4	14	-33	-6
Cc1ccc(C)c(C(=O)N2CCC(n3nccc3NC(=O)C3CC3)CC2)c1	·	-1.4	·	·	0
CCCCN(C)C(=O)Cn1nc(Cc2ccncc2)c2ccccc2c1=O	·	2.0	·	·	2
Clc1ccccc1-c1nnc2sc(-c3cccs3)nn12	11%	2.4	-12	-29	7
O=C1CCCc2c1[nH]c1ccccc21	-4%	0.6	4	-36	?
O=C(O)c1ccc(CSc2nnc(-c3ccco3)n2-c2ccccc2)cc1	3%	-0.1	6	·	0
COc1ccc(NC(C#N)c2ccc(OC)cc2)cc1 (centres undefined)	>100µM*	1.2	-25	-15	97
CCSc1ncccc1C(=O)N[C@@H](CCSC)C(=O)OC	5%	0.4	·	·	15
CC(=O)CC1(OC(C)=O)C(=O)N(C)c2ccccc21 (centres undefined)	5.3µM*	9.2	-24	·	100
NC(=O)CN(c1ccc(Cl)cc1)S(=O)(=O)c1ccccc1	1%	5.7	0	-19	1
CCOC(=O)C1=C(C)N=C2SCCC(=O)N2C1c1cccs1 (centres undefined)	-1%	0.7	-1	-26	-2
Cc1cccc(NC(=O)CSC2=NN3CCCC(=O)N=C3S2)c1C	·	1.7	-5	·	0
O=C(/C=C/c1ccco1)Nc1cc(Cl)ccc1C(=O)O	1%	4.5	42*	-36	10
Cc1ncsc1C(=O)NCc1ccc(N2CCCC2=O)cc1	-1%	1.6	4	-54	4
COc1ccc(OC)c(C(O)c2coc3ccc(O)c(CN(C)C)c23)c1 (centres undefined)	1%	-1.3	2	-21	-5
O=C(NCc1cccnc1)C1c2ccccc2C(=O)N1C1CCCC1 (centres undefined)	2%	1.3	6	-20	-5
O=[N+]([O-])c1cc(-n2cnnn2)c(O)c([N+](=O)[O-])c1	-10%	2.1	·	·	-6
O=C1/C(=C\c2cccnc2)N2CCC1CC2	-4%	-1.7	·	·	18
CC(C)CNC(=S)N1CCN(Cc2ccc3c(c2)OCO3)CC1	-9%	-4.1	5	·	-11
CCOC(=O)C1CSC(CC(=O)Nc2ccc(Cl)c(Cl)c2)C(=O)N1 (centres undefined)	46%	-2.7	-2	-25	·

By substructure, the compounds so far with an aryl thioether with sulfur outside any ring.
SMILES	Mtb H37Rv	RecA splice inh	Arbovirus anti	YopH PTP inh	Mtb betalactam	others
COc1ccccc1CNC(=O)CSc1ccc(Br)cc1	4%	1.0	2	-3	8
O=C(O)c1ccc(CSc2nnc(-c3ccco3)n2-c2ccccc2)cc1	3%	-0.1	6	·	0
CCSc1ncccc1C(=O)N[C@@H](CCSC)C(=O)OC	5%	0.4	·	·	15

Next structures follow.
SMILES	Mtb H37Rv	RecA splice inh	Arbovirus anti	YopH PTP inh	Mtb betalactam	others
CCOc1ccc(NC(=O)CSc2nnc(Cc3cccn3C)n2-c2ccc(OC)cc2)cc1	1%	0.4	2	-14	-9
CCN1C(=O)/C(=C/C=C2/SCCN2C)SC1=S	2%	-0.5	-1	-22	5
CCOC(=O)N1CCC(NCCNC(=O)c2ccco2)CC1	-1%	-1.3	-1	·	-5
Cc1c(NC(=O)COC(=O)c2cc(-c3ccc(-c4ccccc4)cc3)nc3ccccc23)c(=O)n(-c2ccccc2)n1C	17%	-1.7	-11	-20	4
CCOc1ccc(CCNC(=O)c2ccc(N3CCCC3=O)cc2)cc1OCC	0%	-1.6	1	-4	9
Oc1[nH]c2ccccc2c1C1=NCCCC1	1%	-3.7	1	-5	15
Fc1cc(F)cc(NC(=S)N2CCC(c3ccccc3)C2)c1 (centres undefined)	4%	-0.8	-4	·	-9
CC(=O)c1ccc(NC(=O)c2cc(Cl)nc3ccccc23)cc1	5%	-0.9	6	·	-3
CN(C(=O)CSc1cn(CC(=O)N2CCOCC2)c2ccccc12)c1ccccc1	·	1.3	·	·	-4
O=C(COc1ccccc1Br)c1ccc2c(c1)OCO2	·	0.9	·	·	-4
OC(Cn1c2ccccc2c2ccccc21)C[n+]1cccc2ccccc21 (centres undefined)	32%	-2.7	-44	-28	-1
COc1ccccc1NC(=S)NC1CCCCC1	-8%	1.1	3	-26	5
O=C(Cn1ccc([N+](=O)[O-])n1)Nc1nc2ccccc2s1	-7%	2.5	5	·	0
COc1ccc(C(O)Cn2cc([N+](=O)[O-])nc2C)cc1 (centres undefined)	1%	-1.8	·	·	-3
COc1cc(C(=O)N2c3ccccc3CC2C)cc(OC)c1OC (centres undefined)	-5%	-0.6	-4	-21	-6	Arbovirus anti repeat=-13
COc1ccc(C(C)=O)cc1Cn1nnc(-c2ccccc2Br)n1	·	1.0	·	·	-5
Cc1cc(C)c(NC(=O)Cn2c(=O)n(Cc3ccco3)c(=O)c3ccccc32)c(C)c1	1%	1.8	14	-22	-3
O=C(NC(=S)Nc1ccccc1N1CCCCC1)c1cccs1	73%	18	-14	-9	45
CCCCNC(=O)C1CCN(C/C(C)=C/c2ccccc2)CC1	-7%	-5.6	-7	-23	-6
COc1ccc(-c2nnn(CC(=O)N(CC(=O)NC3CCCC3)Cc3cccs3)n2)cc1OC	-1%	1.7	-9	-37	-3
Cc1nc2scc(-c3ccc(C(C)C)cc3)c2c(=O)n1N	6%	1.3	7	·	3
COc1ccc2c(c1)CCc1c(C(=O)Nc3cc(C)n(Cc4ccc(Cl)cc4)n3)noc1-2	0%	-1.3	-1	-25	1
COc1ccccc1Nc1nccc(N(C)C)c1C#N	-1%	-3.1	1	·	7
CCOC(=O)c1c(C)[nH]c(C)c1C(=O)COC(=O)CNC(=O)C1CCCCC1	-1%	-0.1	-9	·	-4
CCN1CCN(c2ccc(S(=O)(=O)N3CCCCC3)cc2NC(=O)COc2ccccc2)CC1	·	0.3	·	·	-10
Continued:
SMILES	Mtb H37Rv	RecA splice inh	Arbovirus anti	YopH PTP inh	Mtb betalactam	others
C/C(=N\NC(=O)c1ccccc1O)c1cccs1	-5%	-1.4	4	·	-1
Cc1c(C)c2c(OCC(=O)N3CCC(C(N)=O)CC3)cc3c(c2oc1=O)CCC(C)(C)O3	·	-3.9	·	·	-1
O=C(Nc1cccc(Br)c1)c1ccc2snnc2c1	·	1.7	·	·	?
CCOc1ccc(NC(=S)Nc2ccc3nsnc3c2)cc1	?	26	-25	84*	98
Cc1ccc(S(=O)(=O)N2CCC(=O)N(CCOCc3ccccc3)CC2)cc1	-6%	0.0	4	-20	-7
O=C(CCN1C(=O)[C@@H]2Cc3ccccc3CN2C1=O)NCc1ccccc1	·	0.0	·	·	7
COC(=O)c1cc(=O)n2c(sc3ccccc32)c1C#N	-7%	·	·	·	-8
CSc1ncccc1C(=O)NCCc1ccccc1F	·	-11	·	·	1
COc1ccc(-c2nc3cc(NC(=O)Cc4ccc(OC)c(OC)c4)ccc3o2)cc1	1%	2.0	2	11	78
CN1C(=O)NC(c2ccccc2Cl)C2=C1CC(C)(C)CC2=O (centres undefined)	·	-0.9	·	·	-5
CCCCCCc1cc2cc(C(=O)NC)c(=N)oc2cc1O	4.7µM*	-372	-1	8	2
CO/N=C/C(C#N)=C/c1ccc(OC)c(OC)c1	7%	-0.2	-2	·	1
CCOC(=O)CNC(=O)CNC(=O)Cn1ccc2ccccc2c1=O	-12%	2.1	-6	0	-2
O=C(NCc1cccs1)C1CC(c2ccc(Cl)c(Cl)c2)=NO1 (centres undefined)	-4%	-1.0	-12	·	0
COc1ccc(C(=O)n2ccc(C)n2)cc1Br	·	·	1	-38	·
O=C(O)C1CCN(c2ccc(S(=O)(=O)N3CCOCC3)cc2[N+](=O)[O-])CC1	5%	-1.4	6	·	-9
Cc1nonc1OCC(C)(COc1nonc1C)NC(=O)c1ccc(Cl)cc1	-1%	1.5	-7	-37	-13
COC(=O)c1cnn2c(C(F)(F)F)cc(-c3ccccc3)nc12	14%	·	0	4	3
O=c1[nH]cnc2c1ncn2[C@@H]1O[C@H](CO)[C@@H](O)[C@H]1O	1%	0.1	11	-52	5
COc1ccc(N2CCN(S(=O)(=O)c3ccc(-c4cc(C)no4)s3)CC2)cc1	·	0.4	·	·	1
Cc1cccc(NC(=O)OC2CN3CCC2CC3)c1 (centres undefined)	0%	-1.0	·	·	-1
COc1ccc(C(=O)Cc2ccc(OC)c(OC)c2)c(OC)c1	-1%	-1.8	-2	-19	1
COC(=O)c1ccc(COC(=O)C23CC4CC(CC(O)(C4)C2)C3)o1	-4%	-1.0	7	-28	17

Sorted by length of the SMILES (smallest number first): some entries from above.
SMILES	Mtb H37Rv	RecA splice inh	Arbovirus anti	YopH PTP inh	Mtb betalactam	others
COc1ccc(C(=O)n2ccc(C)n2)cc1Br	·	·	1	-38	·
COC(=O)c1cc(=O)n2c(sc3ccccc32)c1C#N	-7%	·	·	·	-8
COC(=O)c1cnn2c(C(F)(F)F)cc(-c3ccccc3)nc12	14%	·	0	4	3

Screens from PubChem BioAssay.

A portion of the library; count on the stated rates, not on these rows.
